Source: PubChem BioAssay
HPGD inh = inhibitors of human 15-hydroxyprostaglandin dehydrogenase (HPGD) | P15428 | purified HPGD, NADH fluorescence kinetic, PGE2 substrate | Potency, µM, for the others: top-dose activity change, negative = inhibition, most hits filed as inhibitors | actives 4.3% (n = 150,000); active = well fitted inhibition curve with a large enough effect (not every such curve was filed as active); inconclusive = small, poorly fitted or top-dose-only effect, or another doubt; inactive = no such curve, though single readings can be large or run the other way;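 also: top concentration of the series not given in the record; plate controls included wells without enzyme; inactives centre near -10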
Target sequence (P15428 whole entry, looked up): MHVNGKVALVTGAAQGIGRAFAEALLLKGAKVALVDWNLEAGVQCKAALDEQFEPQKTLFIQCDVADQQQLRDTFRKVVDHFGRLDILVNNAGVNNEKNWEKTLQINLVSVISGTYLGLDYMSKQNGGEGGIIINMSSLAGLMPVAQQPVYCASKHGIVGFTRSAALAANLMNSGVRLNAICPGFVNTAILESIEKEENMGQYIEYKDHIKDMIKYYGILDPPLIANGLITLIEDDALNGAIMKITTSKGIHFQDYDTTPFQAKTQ
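NADH formation kinetics: reaction with 30 uM PGE2 and 1 mM NAD+ (final), 20 nM enzyme, Tris-HCl pH 8 with Tween 20, after 15 min compound preincubation at room temperature. Fluorescence change, last versus first of five reads.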
The depositor's hits bear a star; ? = inconclusive; [ ] = dose if it differs, or a comment. % is scaled to controls: 0 for no effect and ±100 for the full control effect; potency is read from the fitted curve at half-maximal effect. Only part of the results is shown, so the mix of outcomes need not match the whole.

SMILES	HPGD inh
CN=C(NC#N)SCC(=O)c1ccc(Cl)cc1Cl	-2%
Cc1ccc2nc(/C(C#N)=N/O)[nH]c2c1	-7%
CC(C)(C)OC(=O)N1CCC(c2cc(=O)n3[nH]c(-c4ccc(Cl)cc4)cc3n2)CC1	-14%
COCCn1c(SCC(=O)N2CCc3ccccc3C2)nc2cc(Cl)ccc2c1=O	-13%
Cc1cc(C)cc(-n2c(C)cc(C(=O)CSc3nnnn3C)c2C)c1	-20%
Cc1ccc(Nc2nc(C3CC3)cs2)cc1	-16%
O=C(C1CC1)N1CCN=C1SCc1cccc(F)c1	-5%
COc1cc(/C=C(\C#N)c2nc3ccccc3s2)ccc1OCC(=O)Nc1ccccc1	-20%
Cc1c(NC(=O)c2cccs2)cccc1C(=O)O	-7%
COc1cccc2c(=O)c(C(=O)O)c[nH]c12	?
O=C(Cn1c2ccccc2c(=O)c2ccccc21)N/N=C/c1ccc(N2CCCC2)c([N+](=O)[O-])c1	?
c1ccc2c(Nc3ccncc3)nc(-c3ccc4c(c3)OCO4)nc2c1	?
N#CC1=C(SCC(=O)NC2CCCCC2)NC(=O)CC1c1ccco1 (configuration not stated)	-17%
CCN(CC)C(=O)Oc1ccc(NC(C)=O)cc1	-10%
O=C(Cn1cnc2c(nnn2Cc2ccc(F)cc2)c1=O)NCc1ccco1	16µM*
Cc1ccc(-n2ncc3c(N4CCN(c5ccc(F)cc5)CC4)ncnc32)c(C)c1	-7%
CC1Cc2nc(SCC(=O)N3CCc4ccccc43)n(C)c(=O)c2S1 (configuration not stated)	-1%
COc1cc(/C=C2\SC(=S)N(Nc3ncc(C(F)(F)F)cc3Cl)C2=O)cc(OC)c1OC	-26%
O=C(N/C(=C/c1cccc([N+](=O)[O-])c1)C(=O)N1CCCCC1)c1cccs1	-5%
Cn1c(=O)cc(OCCCC(=O)NCc2ccco2)c2ccccc21	20µM*
FC(F)(F)c1ccc(-n2ccnc2)nc1	5%
Cc1ccc(C(=O)c2cc3ccccc3o2)cc1C	?
COc1ccc(/C=C/C(=O)Nc2nc(C)c(C(=O)N(C)C)s2)cc1OC	?
Cc1cc(=O)c2cc(Br)ccc2[nH]1	70%[activator]
CCOC(=O)Cc1csc(NC(=O)CSc2nnc(-c3cccnc3)n2Cc2ccco2)n1	-13%

Next section, starting with the last 2 of the part before.
SMILES	HPGD inh
Cc1cc(=O)c2cc(Br)ccc2[nH]1	70%[activator]
CCOC(=O)Cc1csc(NC(=O)CSc2nnc(-c3cccnc3)n2Cc2ccco2)n1	-13%
Cc1[nH]n(-c2c(Cl)cc(Cl)cc2Cl)c(=O)c1C=Nc1ccc(S(=O)(=O)N2CCOCC2)cc1	-11%
O=C(c1cc(-c2ccco2)nc2ccccc12)N1CCN(c2ccc(F)cc2)CC1	?
Cn1c(=O)c2c(nc(NCCCN3CCOCC3)n2Cc2cccc(Cl)c2)n(C)c1=O	-7%
CCCCOC(=O)C1[C@H]2C(=O)N(Cc3cccs3)C[C@]23C=C[C@H]1O3 (some centres not stated)	-3%
CCc1c(C)c2c(C)nn(-c3ccccc3)c2oc1=O	-9%
CCC(C)C(NC(=O)C1CCC(C)CC1)C(=O)NC(C(=O)OC)C(C)C (configuration not stated)	-4%
COc1ccc(CCN=C(N)NS(=O)(=O)c2ccccc2)cc1OC	-6%
COc1cc(NS(=O)(=O)c2ccc(NC(=O)COc3ccccc3Cl)cc2)nc(OC)n1	-30%
COC(=O)c1ccc(N=NNc2ccc(C(=O)OC)cc2)cc1	-19%
COC(=O)[C@@]1(Cc2ccccc2)[C@H]2c3cc(C(=O)N(C)C)n(Cc4ccc(O)c(OC)c4)c3C[C@H]2CN1C(=O)c1ccccc1	-5%
COc1cc(/C=C2/SC(N)=NC2=O)ccc1Oc1ccc([N+](=O)[O-])cc1[N+](=O)[O-]	-11%
Cc1cc(NC(=O)c2cncc(Br)c2)n(-c2ccccn2)n1	-18%
CC12COC3(C(N)=O)CC1CCC32C (configuration not stated)	-5%
Nc1nnc(N2CCc3ccccc32)s1	-16%
Cc1cccn2c(=O)c3cc(C(=O)NC4CCS(=O)(=O)C4)sc3nc12 (configuration not stated)	?
Cc1cc(C(=O)OCC(=O)Nc2cc(C(F)(F)F)ccc2N2CCOCC2)c(C)o1	-6%
Cc1cc(C)c(S(=O)(=O)N(C)CC(=O)N2CCCCC2)c(C)c1	?
Cc1cc(C)cc(N(C(=O)c2nsc(Cl)c2Cl)C(C(=O)NC2CCCC2)c2ccc(O)cc2)c1 (configuration not stated)	-14%
CC1(C)Cc2c(sc(NC(=O)C(C)(C)C)c2C#N)C(C)(C)N1	-2%
C/C(=N\NC(=O)c1ccc(CN2CCOCC2)cc1)c1cccc([N+](=O)[O-])c1	-6%
COc1ccc(NC(=S)NC(NC(=O)/C=C/c2ccccc2)C(Cl)(Cl)Cl)cc1 (configuration not stated)	-3%
Cc1ccc(C2CC(c3cccc(Br)c3)n3nc(N)nc3N2)cc1 (configuration not stated)	-7%
O=C(CN1CCC(O)(c2ccc3c(c2)OCO3)CC1)N1CCOCC1	-8%
Cc1ccc(CSCCNC(=O)/C=C/c2ccccc2Cl)cc1	8.9µM*
COc1ccc(CSc2nc3ccccc3[nH]2)cc1	-20%
Cc1cc2cc(CN(CC3CCCO3)C(=S)Nc3ccccc3)c(=O)[nH]c2cc1C (configuration not stated)	-19%
Cn1c(NCCCO)nc2c1c(=O)n(Cc1ccccc1F)c(=O)n2C	-2%
CCCCCC(=O)N1CCN(CCN=CC2=C(O)CC(c3ccc(OC)cc3)CC2=O)CC1 (configuration not stated)	-17%
O=C1C(CCC(O)c2ccc(F)cc2)C(c2ccc(O)cc2)N1c1ccc(F)cc1 (configuration not stated)	-18%
CCn1c(SCc2ccc(F)cc2)nnc1-c1nn(-c2ccccc2)ccc1=O	-18%
Cc1nnc(-c2cccc(Br)c2)c2cn(-c3ccc(Br)cc3)nc12	-19%
N#Cc1c(N)nc2c(c1N)CC(=O)N2c1ccccc1-c1ccccc1	-5%
O=C1Nc2ccc(Cl)cc2C(C#CC2CC2)(C(F)(F)F)O1 (configuration not stated)	-8%
CCOC(=O)c1c(C)[nH]c(C2=NNC(=Nc3cccc(Cl)c3)SC2)c1C	-12%
O=C(CN1CCN(S(=O)(=O)c2ccccc2)CC1)Nc1ccc([N+](=O)[O-])cc1	-13%
c1ccc(Cn2c(-c3cccs3)nc3nc4ccccc4nc32)cc1	?
CN(Cc1ccccc1)Cc1nc2c([nH]1)c(=O)n(C)c(=O)n2C	-6%
O=C(Nc1ccccc1C(F)(F)F)N1CCC(N2CCCCC2)CC1	-5%
CCN=C1SC(C(=O)Nc2ccccc2)CC(=O)N1CC (configuration not stated)	-11%
COc1cccc([C@@H]2Oc3ccc(Br)cc3C[C@H]2OC(=O)NCCc2ccc(OC)c(OC)c2)c1	-6%
CC(C)OCCCN1CN(S(=O)(=O)c2ccc(Cl)cc2)c2nc3ccccc3nc21	-9%
C/C(CC1CC(C)OC1=O)=N\NC(N)=S (configuration not stated)	-8%
CNc1ccccc1C(C)(C)c1cc(-c2ccc(F)cc2)no1	-16%
CCc1noc(C)c1C(=O)N1CC(C)OC(C)C1 (configuration not stated)	-1%
COC(=O)C[N+](C)(C)CC#Cc1ccccc1	-4%
N=c1c2c3c(sc2ncn1CCCO)CCCC3	-6%
COc1ccc(Nc2nc(N/N=C/c3ccc(N(C)C)cc3)nc(C)c2[N+](=O)[O-])cc1	-10%
COc1ccc(CC(=O)n2nc(-c3ccc(Cl)cc3)nc2NCc2ccco2)cc1	-22%
O=C(NCc1ccc(F)cc1)c1ccccc1OCc1ccccc1	-9%
Cc1ccc(CS(=O)(=O)Cc2ccc(C(=O)NCC3CCCO3)o2)cc1 (configuration not stated)	-13%

Later entries:
SMILES	HPGD inh
CC1(C)Oc2ccc(C(=O)N3CCCC3)cc2N(CC(=O)NCc2ccccc2)C1=O	-9%
CCC(C)NC(=O)C1c2cc(OC)c(OC)cc2C(=O)N(C)C1c1ccc(OC)cc1 (configuration not stated)	-11%
CC1(C)Cc2c(c(N3CCCC3)nc3sc4c(N5CCN(CCO)CC5)ncnc4c23)CO1	-24%
CCCCNC(=O)C1CCN(S(=O)(=O)N2CCCCCC2)CC1	-7%
Cc1ccc(NC(=O)c2cnccn2)c(OC(F)F)c1	-10%
O=C(Cc1ccc(Br)cc1)NCCc1ccc(Cl)cc1Cl	-9%
Cc1cc(C)c(NC(=O)/C(C#N)=C/c2ccc(OCc3ccc(F)cc3)cc2)c(C)c1	-3%
Cc1cccc(NC(=O)C2(C)CC3c4ccccc4C2c2ccccc23)c1C (configuration not stated)	-5%
O=C(NC(Cc1c[nH]c2ccccc12)C(=O)OCC(=O)c1cccc2ccccc12)c1cccs1 (configuration not stated)	-4%
O=C(N/N=C/c1ccc(O)cc1)c1csc2c1CCCC2	-23%
Cc1nnc(NC(=O)CSc2nnc(Cc3cccn3C)n2CCc2ccccc2)s1	-19%
O=C(CCc1nc2ccccc2[nH]1)Nc1ccc2c(c1)OCO2	-13%
CCOC(=O)C1CCN(C(=O)CNS(=O)(=O)c2ccc(Br)s2)CC1	-2%
Cc1cc([N+](=O)[O-])cc2c1NC(=O)C2(O)N1CCCCCC1 (configuration not stated)	-11%
C=CCn1c(N)c(C(=O)Nc2ccc(C)c(C)c2)c2nc3ccccc3nc21	-15%
O=C(Nc1ccc(-n2nncc2-c2ccco2)cc1)c1cccc(F)c1	13µM*
COc1ccc(Cl)cc1NC(=O)CN(c1ccccc1)S(=O)(=O)N(C)C	-9%
Cc1csc(SCC(=O)N2CCN(S(=O)(=O)c3ccc(Cl)cc3)CC2)n1	-12%
COC(=O)CN1C(c2ccccc2O)Nc2ccc(Br)cc2C1c1ccccc1 (configuration not stated)	-19%
CCNC(=S)NNC(=O)c1csc2c1CCC(C)C2 (configuration not stated)	-10%
COC(=O)c1ccc(OCC(O)Cn2nnc3ccccc32)cc1 (configuration not stated)	-19%
CC(=O)c1cccc(NC(=O)Cn2cc3c(n2)CCCC3)c1	-9%
Cc1cc(C(=O)NC(CC(C)C)C(=O)O)cc(C)c1[N+](=O)[O-] (configuration not stated)	-19%
CCOC(=O)/C(=N\NC(=O)c1ccccc1)c1ccccc1	-6%
CN(C)CC(C)(C)CNS(=O)(=O)c1ccc(Cl)c(Cl)c1	3%
COc1ccc(C(=O)CSc2nnc(CNc3ccc(C)cc3C)n2Cc2ccco2)cc1	?
COC(=O)[C@@H]1C[C@H]1[C@@H](NC(C)=O)c1ccccc1	-5%
CCOc1cc(CO)c(Br)cc1OCC(=O)O	-8%
O=C(CN1CCC(n2nnc3cc(F)ccc32)CC1)N1CCCc2ccccc21	-4%
CCOC(=O)N1CCN(c2ccc(C(F)(F)F)cn2)CC1	?
CC(C)CCNC(=O)NC(=O)COC(=O)c1cc(S(=O)(=O)N2CCOCC2)ccc1N1CCCCC1	74%[activator]
O=C(O)CCC(=O)N1CCc2cc(S(=O)(=O)N3CC=C(c4ccccc4)CC3)ccc21	-28%
COc1ccc(Cc2c(O)nc(SCC(=O)N3CCCCCC3)[nH]c2=O)cc1	1%
Cc1cccc(N(CC(=O)NC2CCCC2)C(=O)CCCC(=O)Nc2ccccn2)c1	-7%
CC(=O)N[C@@H](CC(C)C)C(=O)O	-3%
CCCc1ccc(OCc2ccc(C(=O)N3CCN(c4ccccn4)CC3)o2)c(OC)c1	?
Cc1ccc(N2C(=O)CC(Sc3ncn[nH]3)C2=O)cc1 (configuration not stated)	?
COc1ccc(N2CCSC2C(=O)NN)cc1 (configuration not stated)	-15%
Cc1ccc(C(=O)N/C(=C/c2ccco2)C(=O)Nc2cccc(C)c2)cc1	-2%
Cc1ccc2c(c1)c(C)c(C)n2CC(O)CN1CCOCC1 (configuration not stated)	-3%
CC1CCN(C(=O)CSc2nnc(CSc3ncccn3)n2C)CC1	-15%
O=S(=O)(NC1CCCCC1)c1ccc(Cl)nc1	-20%
CSc1ccccc1-c1nnc(-c2ccccc2)o1	?
Cc1ccc(NC(=O)CSc2n[nH]c(-c3ccncc3)n2)cc1C	-10%
COc1ccccc1CN1CC2(CCN(S(=O)(=O)c3ccccc3)CC2)C1	-6%
CCOC(=O)N1CCC(NC(=O)Cn2c3ccccc3c3cn[nH]c(=O)c32)CC1	-27%
Cc1cc(C)n(-c2nnc(C)n2NC(=O)c2cccc(Cl)c2)n1	0%
CN1CC(=O)N(CC(=O)Nc2ccc(F)cc2)c2ccccc2C1=O	-15%
N#Cc1ccccc1OC[C@H](O)CNCCNC(=O)Nc1ccccc1	-3%

Rewritten with each value named: entries from further up.
> O=C(O)CCC(=O)N1CCc2cc(S(=O)(=O)N3CC=C(c4ccccc4)CC3)ccc21
  HPGD inh: -28%

> COc1ccc(Cc2c(O)nc(SCC(=O)N3CCCCCC3)[nH]c2=O)cc1
  HPGD inh: 1%

> Cc1cccc(N(CC(=O)NC2CCCC2)C(=O)CCCC(=O)Nc2ccccn2)c1
  HPGD inh: -7%

> CC(=O)N[C@@H](CC(C)C)C(=O)O
  HPGD inh: -3%
